eIF4H FP inh: inhibitors of RNA binding by human eIF4H; inhibition, % at 35 µM; Q15056; eIF4H fluorescence polarization binding assay; 290,000 compounds, 0.94% hits;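 active means 50% or more with normal probe brightness, or confirmed in later tests; inconclusive means above 50% with abnormal brightness, or retests that disagree; inactive means below 50% or failed in later tests; about a fifth of its hits are not listed in these tables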;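 further: calls also rest on retests at 20 µM and on dose response follow-up; 0% = protein and probe with vehicle and 100% = probe without protein; strong numbers were not always called active; many hits fall short of the cut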
PABP polyA inh: blocks human PABP binding to poly(A) RNA. fluorescence polarization. P11940. 290,000 compounds, 1% hits. inhibition, % at 35 µM;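 active means 50% or more with normal probe brightness, or confirmed in later tests; inconclusive means above 50% with abnormal brightness, or retests that disagree; inactive means below 50% or failed in later tests; about a fifth of its hits are not listed in these tables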;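 further: calls also rest on retests at 20 µM and on dose response follow-up; controls were probe without protein and protein plus probe with vehicle; some compounds called inactive have numbers as strong as hits; many hits fall short of the cut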
Target sequence (P11940 whole entry, looked up): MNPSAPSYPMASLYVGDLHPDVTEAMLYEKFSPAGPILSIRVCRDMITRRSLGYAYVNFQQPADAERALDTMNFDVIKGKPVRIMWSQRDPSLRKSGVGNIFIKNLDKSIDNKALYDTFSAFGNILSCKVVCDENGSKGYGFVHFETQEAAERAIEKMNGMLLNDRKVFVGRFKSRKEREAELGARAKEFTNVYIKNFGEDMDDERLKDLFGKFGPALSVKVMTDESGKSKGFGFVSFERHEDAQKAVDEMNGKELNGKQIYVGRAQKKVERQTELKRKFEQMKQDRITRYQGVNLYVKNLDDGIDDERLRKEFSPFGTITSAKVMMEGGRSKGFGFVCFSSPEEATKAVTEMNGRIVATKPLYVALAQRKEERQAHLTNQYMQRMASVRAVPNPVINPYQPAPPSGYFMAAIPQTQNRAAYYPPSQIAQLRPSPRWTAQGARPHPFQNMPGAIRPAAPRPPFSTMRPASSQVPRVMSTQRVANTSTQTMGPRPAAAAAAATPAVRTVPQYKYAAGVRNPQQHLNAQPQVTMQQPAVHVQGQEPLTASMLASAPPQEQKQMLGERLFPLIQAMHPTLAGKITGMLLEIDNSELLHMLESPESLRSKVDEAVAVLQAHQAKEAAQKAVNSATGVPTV
UUG fidelity: alters start codon recognition fidelity in yeast | S. cerevisiae UUG-firefly luciferase reporter, luminescence/redox ratio | 350,000 compounds, 0.13% hits | AID 602363 | activity score, % at 18.7 µM;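 active means replicate mean at a twofold rise or more, about +100% in these data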;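 further: firefly luciferase made from a UUG start codon reports start codon fidelity; reporter light over untreated wells divided by growth signal over untreated wells; some hits fall short of that in this replicate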
CSC inhib: cancer stem cell inhibition. cancer stem cell-like cells viability, luminescence. inhibition, % at 7.5 µM. 300,000 compounds, 1.1% hits. AID 2717;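 active means mean at 75% or more and at least half the replicates too; inconclusive means mean and replicates disagree; tested in HMLE shEcad cells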;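 further: 0% = median of negative and 100% = median of positive control wells; the first replicate is given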
HIV Env fusion: inhibitors of HIV Env-mediated cell fusion | HeLa-JRFL Env/CEM21 cell fusion, luciferase | inhibition, % at 12.3 µM | 360,000 compounds, 1.1% hits | AID 651610;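 active means mean replicate inhibition score of at least 50 and every replicate individually at or above 50; inconclusive means only one of the two criteria met; inactive means mean below 50 and not all replicates reaching 50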;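 further: 0% = plate neutral controls and 100% = maraviroc near 300 nM; one replicate is shown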
MT1-MMP act inh: blocks activation of human MT1-MMP | 360,000 compounds, 0.061% hits | HT1080 RFP-PRO-GFP cells, GFP/RFP ratio fluorescence, overnight; percent of plate control window, DMSO zero | GFP/RFP ratio change, % at 20 µM | AID 651647 | P50281;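 active means GFP/RFP ratio change of at least 30% with cell ATP level not reduced by more than half and red fluorescence within 50% of control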; further: strong numbers were not always called active
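Compound: 20 µM single dose, 1% DMSO / System: HT1080 RFP-PRO-GFP cells / Controls: DMSO and RFP-L50D-GFP cell wells / Read-out basis: GFP/RFP fluorescence ratio / Schedule: overnight compound exposure at 37 °C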
Rce1 inh: blocks yeast Ras-converting enzyme | Q03530 | yeast membranes, quenched prenylated peptide cleavage fluorescence | calls only | 290,000 compounds, 0.27% hits;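 active means fall in fluorescence gain of 50% or more versus controls, with final raw signal at or below 3038400; inconclusive means same 50% fall but final raw signal above 3038400; inactive means fall in fluorescence gain under 50%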;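 further: plate controls were neutral control wells for no effect and wells lacking membranes for full effect; tested at 10 µM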
MT1-MMP act inh RFP: further read-out of MT1-MMP act inh, marked with its call; RFP signal change, %; measured here: RFP expression control read;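 0 = vehicle wells; hits needed this value within 50% of zero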
* marks the source's active call; other numbers are inactive results; i = inactive; ? = inconclusive; / = not tested or not shown. The list is partial, so the mix of outcomes need not match the whole.

Values run as follows: Rce1 inh, UUG fidelity, MT1-MMP act inh RFP, CSC inhib, PABP polyA inh, HIV Env fusion, MT1-MMP act inh, eIF4H FP inh
Cc1nc2c(-c3ccc(F)cc3)c(C)nn2c(N2CCOCC2)c1C
  i, 21, -8, -12, 1, /, -5, -2
Cc1nn2c(NC(C)C)c3c(nc2c1-c1ccccc1)CCC3
  i, -14, -5, 36, -3, 21, 0, -4
O=S1(=O)N=C(N(CCO)/N=C/C=C/c2ccccc2)c2ccccc21
  i, -23, -2, -9, -7, /, 0, -9
CN(C)CCCN(C(=O)COc1ccccc1)c1nc2ccc(Cl)cc2s1
  i, -12, 0, 0, 1, 0, 0, -11
COCCN(C(=O)COC(=O)C12CC3CC(CC(O)(C3)C1)C2)c1c(N)n(Cc2ccccc2)c(=O)[nH]c1=O
  /, -1, 5, /, /, 4, 1, /
COc1ccc(N2CCN(C3CCCN(Cc4ccc(F)cc4Cl)C3)CC2)cc1 (configuration not stated)
  i, 9, -11, 12, -4, 23, 4, -7
Cc1cc(/C=C2/SC(=S)N(c3cccc(Cl)c3)C2=O)c(C)n1-c1cccnc1
  i, -10, -17, /, /, 53, -85, /
Cc1cccnc1NC(=O)Nc1cccc(C(F)(F)F)c1
  /, 7, 3, 7, -8, -30, 2, 5
Cn1c(CNC(=O)c2ccco2)nnc1SCC(=O)Nc1cccc(F)c1
  i, -5, 3, -15, -13, 10, -1, -1
O=C(COc1ccc(Cl)cc1)Nc1ccccc1N1CCOCC1
  i, /, /, /, 5, /, /, -1
CCS(=O)(=O)N1CCN(c2ccccn2)CC1
  i, 4, 2, -12, 9, -21, 4, -4
COc1ccc(N2C(=O)C3CCCN3C2c2ccccc2F)cc1 (configuration not stated)
  i, -21, 2, -5, -1, -4, -2, -7
Clc1nc(-c2ccccc2)ncc1Oc1ccccc1
  i, -20, -3, 10, /, 7, 3, /
c1cc2c(cc1-c1cnc3n1CCC3)OCCO2
  i, -36, 1, -41, 0, /, 6, -12
CN(C)C(=O)COC(=O)c1ccccc1OCC(=O)Nc1ccc(SC(F)F)cc1
  i, 40, 3, 2, 11, /, 8, -1
Cc1csc(=O)n1CCC(=O)OC(C)C(=O)Nc1ccc(N2CCOCC2)cc1 (configuration not stated)
  /, -3, 1, -21, /, 3, 2, /
CCn1cc(C(=O)N2CCN(c3ccc(F)cc3)CC2)c2cc(OC)c(OC)cc2c1=O
  i, 0, -4, -13, -3, 3, -4, -7
O=C1C2C3c4ccccc4C(c4ccccc43)C2C(=O)N1Cc1cccnc1 (configuration not stated)
  i, -23, -6, -10, 9, -41, -4, 4
COc1ccc(NC(=O)c2ccc(COc3ccc(C)cc3)o2)cc1
  i, -6, -5, -5, -22, -20, -4, -4
CCn1nc(C)cc1-c1nnc(Sc2ncc([N+](=O)[O-])s2)n1C
  i, -20, 2, /, -2, -232, 3, 1

Carrying on.
Values run as follows: Rce1 inh, UUG fidelity, MT1-MMP act inh RFP, CSC inhib, PABP polyA inh, HIV Env fusion, MT1-MMP act inh, eIF4H FP inh
COc1ccc(C=Nc2cccc3c(=O)[nH][nH]c(=O)c23)c2ccccc12
  i, -12, 3, -3, 17, -64, -1, 2
CCOC(=O)Cc1c(Sc2ccccc2)c2cc(C)ccc2n1C
  i, -4, -1, ?, 6, -11, -3, -11
CC(=O)NC12CC3CC(CC(CC(=O)O)(C3)C1)C2
  i, -8, 4, -1, -16, -53, 4, -8
C[C@@]12C(=O)NCC(=O)N1[C@@H]1c3cc(Br)ccc3OC[C@@H]1[C@@H]2c1ccccc1
  /, -12, 1, -9, /, -8, 1, /
COc1cc(OC)c(C(=O)OCC(=O)Nc2nnc(-c3ccccc3)o2)cc1OC
  /, 8, -1, /, /, 4, -3, /
Cc1nnc(SCC(=O)Nc2cccc(C(F)(F)F)c2)n1Cc1ccco1
  i, -17, 2, -8, 3, -65, 0, 3
Cc1ccc(C2C(C(=O)c3ccco3)=C(O)C(=O)N2c2ncccn2)cc1 (configuration not stated)
  i, -9, 0, -11, 0, 9, 0, 3
COc1ccc(NC(=O)Cn2c(=O)n(CC3CCCO3)c(=O)c3ccccc32)c(OC)c1 (configuration not stated)
  i, -12, /, -20, 3, 5, /, -14
CC(C)CCn1c(SC(C)C(=O)NC2CC2)nc2ccccc2c1=O (configuration not stated)
  i, -3, 4, -8, /, /, -1, /
COc1cccc(-c2cc(=O)c3cc(NC(=O)c4ccc(Cl)cc4)ccc3[nH]2)c1
  i, 4, -5, -27, 5, -62, 6, -10
Cc1cn(CC(=O)NCCNc2ccc([N+](=O)[O-])cn2)c(=O)[nH]c1=O
  /, -17, 3, /, /, -52, 2, /
Cc1ccc(S(=O)(=O)/N=C(/Nc2ccc([N+](=O)[O-])cc2)c2ccccc2)cc1
  i, 1, /, 40, 12, 3, /, 9
Cc1ccc(Sc2ncccc2C(=O)NCC(c2ccc(F)cc2)N2CCOCC2)c(C)c1 (configuration not stated)
  i, /, -8, /, /, 30, -3, /
COc1ccccc1C(CNC(=O)c1ccc(C)c(S(=O)(=O)N2CCCCC2)c1)N1CCCC1 (configuration not stated)
  /, 3, 1, /, /, -95, -7, /
O=S(=O)(Nc1ccc(O)c(Sc2nc3ccccc3s2)c1)c1cccc2ccccc12
  i, /, -9, 81*, 1, 27, -8, 2
CCC(=O)c1cn(CC(=O)NCc2ccco2)c2ccccc12
  i, -16, 1, 1, 11, /, 1, 0
CCCC(=O)Nc1ccc(C(=O)N2CCCC2)cc1
  i, -16, 6, -19, -6, -3, -2, -9
CC(C)(C)NC(=S)N/N=C\c1ccc(-c2ccc([N+](=O)[O-])cc2)o1
  i, -5, -7, 0, 0, -13, -65, -3
O=C(COC(=O)c1ccc[nH]c1=O)Nc1cc(S(=O)(=O)N2CCCCCC2)ccc1Cl
  /, -10, 3, /, /, -10, -2, /
COc1ccc(C)cc1S(=O)(=O)N1CCN(C/C=C/c2ccccc2)CC1
  /, 2, -3, /, /, 6, 0, /

Continuation:
Values run as follows: Rce1 inh, UUG fidelity, MT1-MMP act inh RFP, CSC inhib, PABP polyA inh, HIV Env fusion, MT1-MMP act inh, eIF4H FP inh
O=C(C1=C[C@H](c2ccc(C(F)(F)F)cc2)C[C@H](OCc2ccc(CO)cc2)O1)N1CCCCCCC1
  i, -25, -1, 12, 4, /, -1, -7
OC(c1ccc(F)c(F)c1)c1ncc(-c2ccccc2F)[nH]1 (configuration not stated)
  /, 2, 0, /, /, -30, 4, /
Cc1nnc(SCc2cccc3ccccc23)n(N)c1=O
  i, -13, 1, 8, -10, -6, 4, -3
COc1cc(C(=O)Nc2ccc3nc(N4CCOCC4)sc3c2)cc(OC)c1OC
  /, -11, 4, /, /, 7, 9, /
CC(NC(=O)c1c(O)c2ccccc2[nH]c1=O)c1ccccc1 (configuration not stated)
  i, 2, 2, -7, 0, 8, 3, 2
COc1ccc(-c2csc(N(C)C(=O)c3cccs3)n2)cc1
  i, -5, -2, -12, -8, -64, 1, -3
Cc1cccc(Oc2ccccc2N)c1
  i, /, 3, -3, 16, /, 14, -4
CCOC(=O)N1CCN(C(=O)c2cccc(S(=O)(=O)Nc3ccccc3Cl)c2)CC1
  /, 12, -1, /, /, -6, 4, /
CN(C)c1ccc(NC(=O)c2ccncc2)c2ccccc12
  i, -17, 3, -5, -4, /, -6, 9
CCc1cc2c(nc1CC)CCN(CC/C(C)=N/OC[C@H]1O[C@H](c3ccccc3)C=C[C@@H]1Oc1ccc(OC)cc1)C2
  i, /, /, /, -6, /, /, 38
COc1ccc(NC(=O)NCCCN2CCCC2=O)c(OC)c1
  i, -24, 8, -9, -2, 11, 3, -2
CCCCN1C(=O)C(CC(=O)NC2CCCC2)CC(C(=O)N(C)C)=C1C (configuration not stated)
  /, -12, 3, /, /, -14, 0, /
COc1cccc(CNC(=O)c2ccccc2C(=O)NC(C)(C)C(=O)NCc2cccc(OC)c2)c1
  i, -8, 3, -11, /, 4, -1, /
COc1ccc(C2=NNC(c3ccco3)=Nc3ccc(F)cc32)cc1
  i, /, -1, 12, 2, -3, -5, -4
COc1ccc(C(=O)NNC(=O)c2ccccn2)cc1
  i, /, -1, 16, -4, 62*, 3, -3
COc1ccc(OCC(=O)N2CCN(C(=O)c3cccc(F)c3)CC2)cc1
  i, -17, 2, -1, -8, /, 2, 1
O=C1Nc2cc(Cl)c(Cl)cc2N(O)N1c1ccccc1Cl
  i, /, 1, -8, 5, -2, 2, 12
CCCCOC(=O)Nc1ccc(N2CCOCC2)cc1
  /, -9, 2, -12, -1, -65, 3, 12
COc1cc(NC(=O)CCN2CCN(Cc3ccccc3)CC2)cc(OC)c1
  i, -4, 3, 3, -8, -46, 4, -5
Cc1ccc2nc(N(CCCN(C)C)C(=O)c3ccc4c(c3)CCCC4)sc2c1
  i, 11, -9, -6, 14, -1, -13, 1

Carrying on:
Values run as follows: Rce1 inh, UUG fidelity, MT1-MMP act inh RFP, CSC inhib, PABP polyA inh, HIV Env fusion, MT1-MMP act inh, eIF4H FP inh
COC(=O)c1cc(C#N)c(SCc2ccccc2)nc1C
  i, -3, 2, 4, -12, /, -1, 4
COc1ccccc1NC(=O)N(Cc1ccco1)Cc1cc2cccc(C)c2[nH]c1=O
  i, 0, -4, -14, 8, /, -3, -12
CCCCC(CCC(=O)Nc1cc([N+](=O)[O-])ccc1O)C(=O)O (configuration not stated)
  i, /, 0, 1, -10, 26, 2, -12
Cc1ccc(NC(=O)C2C(=O)N(CCO)C3(C)CC2c2ccccc2O3)cc1 (configuration not stated)
  i, 9, -5, -6, -3, -82, -3, -12
Cc1cc(NC(=O)COC(=O)COc2ccc(Cl)c(C)c2)no1
  /, -2, 5, /, /, 27, -2, /
Nc1nnc(SCCOc2ccc(Br)cc2)s1
  i, -8, -8, 9, -8, /, -5, -2
Cc1cccc(NC(=O)c2ccc(S(=O)(=O)NCc3cccnc3)cc2)c1C
  i, -17, -6, -5, 4, 1, 2, 0
O=C(Nc1nc2cc3c(cc2s1)OCO3)c1ccco1
  i, -38, -4, /, 15, -188, -1, 13
Cc1cc(SCC(=O)N/N=C/c2ccc(O)cc2O)nc2ccccc12
  i, -8, -19, 133*, 2, 33, -4, 1
c1ccc(-n2ncc3c(NCc4ccccn4)ncnc32)cc1
  i, /, 0, -9, 9, /, 1, 3
CC1(Oc2ccc(Cl)cc2)CCN(Cc2ccc(OC(F)(F)F)cc2)C1 (configuration not stated)
  /, -11, 6, /, /, 6, 2, /
CCOc1ccc(-c2nnc(-c3ccccc3)n2-c2ccccc2)cc1
  i, -25, 8, -6, 1, -77, -1, 1
CCN(CC)c1ccc(-c2c(C#N)c(N)nc(OC)c2C#N)cc1
  i, -13, -1, /, 72*, -26, -2, 60*
CC(OC(=O)c1ccccc1)C(=O)NCCC1=CCCCC1 (configuration not stated)
  i, 5, 4, -10, 3, -6, -4, -7
COc1cc(NC(=O)c2ccc([N+](=O)[O-])cc2)c(OC)cc1NC(=O)CC(C)C
  i, /, -2, -18, 1, 3, -1, -6
CCCN(CCC)C(=O)CSc1nc2c(sc(=S)n2-c2ccc(OCC)cc2)c(=O)[nH]1
  i, /, -5, -1, -3, 5, 1, -1
N#Cc1ccc(NC(=O)COC(=O)c2cccc(S(=O)(=O)N3CCCC3)c2)cc1
  /, -12, -1, /, /, -22, -3, /

High-throughput results as filed in PubChem.
